YopH inh – YopH tyrosine phosphatase inhibitors, primary screen, biochemical, fluorescence Ex485/Em525. inhibition, %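 (about 10 µM by stock and volumes)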. 140,000 tested, 0.16% active;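 active = inhibition of 50% or more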;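 also: controls were vehicle for no effect and minimum signal wells for full effect; inactives centre near -20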
RecA splice inh – Mtb RecA intein splicing inhibitors, primary screen, biochemical, fluorescence, HTS; 290,000 tested, 0.75% active; inhibition, %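 (about 9 µM by stock and volumes)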; cell-free RecA intein splicing; Protein RecA (Mycobacterium tuberculosis (strain ATCC 25618 / H37Rv)), P9WHJ3; in the data active = inhibition above about 30%; inconclusive = no clear call, values can overlap the other calls;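 also: 0% = vehicle wells and 100% = reference inhibitor control wells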
Target sequence (P9WHJ3 whole entry, looked up, canonical isoform): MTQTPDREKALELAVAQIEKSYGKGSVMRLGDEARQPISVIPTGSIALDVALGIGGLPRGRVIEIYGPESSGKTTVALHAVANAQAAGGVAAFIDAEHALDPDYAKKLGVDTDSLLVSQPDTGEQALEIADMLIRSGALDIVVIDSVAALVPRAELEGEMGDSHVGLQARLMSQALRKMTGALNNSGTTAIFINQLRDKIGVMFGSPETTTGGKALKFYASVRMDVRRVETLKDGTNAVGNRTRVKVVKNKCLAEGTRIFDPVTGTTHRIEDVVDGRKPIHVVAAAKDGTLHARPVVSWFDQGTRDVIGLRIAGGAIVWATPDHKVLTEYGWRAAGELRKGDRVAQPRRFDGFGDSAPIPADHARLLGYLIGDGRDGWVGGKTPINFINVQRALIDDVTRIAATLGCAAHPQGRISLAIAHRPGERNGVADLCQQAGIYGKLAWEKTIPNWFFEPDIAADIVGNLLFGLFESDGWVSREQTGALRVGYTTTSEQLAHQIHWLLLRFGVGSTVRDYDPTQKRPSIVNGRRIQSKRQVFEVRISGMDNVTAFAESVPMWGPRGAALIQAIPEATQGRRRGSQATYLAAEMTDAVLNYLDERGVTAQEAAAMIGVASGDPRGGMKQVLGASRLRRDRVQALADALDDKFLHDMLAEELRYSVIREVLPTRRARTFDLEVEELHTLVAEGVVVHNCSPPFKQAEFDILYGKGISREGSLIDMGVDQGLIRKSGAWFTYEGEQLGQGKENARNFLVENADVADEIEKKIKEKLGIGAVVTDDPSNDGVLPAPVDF
Mtb bLac sens – beta-lactam sensitization of Mtb H37Rv, H37Rv; M. tuberculosis H37Rv growth with meropenem, percent inhibition; hits of this screen are not shown here; 330,000 tested, 0.27% active; AID 434955, 2010; inhibition, % at 25 µM;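 active = about 74% or more and at least 40 points above the plate without the antibiotic, then above 30% in a dose series; inconclusive = first-round hits that could not be retested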;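 also: growth measured after seven days incubation then overnight dye step; 0% = bacteria only wells and 100% = bacteria with antibiotic; twin plates without the antibiotic show which effects depend on it; some results filed as inactive read as strong as hits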
Mtb growth – M. tuberculosis H37Rv growth inhibitors, H37Rv strain (AID 1626) | M. tuberculosis H37Rv growth inhibition; higher % means a stronger effect | inhibition, % at 10 µM; hits with a dose series show IC50 in µM | 220,000 tested, 0.95% active;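 active = confirmed in a dose series; inconclusive = inhibition above 80% but not taken into the dose series; inactive = below 80% or under 30% at every dose of the series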;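 also: bacteria incubated seven days before Alamar blue readout; 0% = bacteria only wells and 100% = bacteria with antibiotic wells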
Arbovirus inh – antivirals against arbovirus infection, primary screen, cell-based, full library, 10K replicate subset | inhibition, % at 10 µM | AID 1251, 2008 | arbovirus infection cell-based antiviral screen | 200,000 tested, 0.37% active;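 active = inhibition from about 30%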;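 also: bluetongue infection of BSR cells; cell survival read as ATP light after 72 h; 0% = infected wells without compound and 100% = uninfected wells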
Arbovirus inh repeat – also measured in Arbovirus inh; calls as there; inhibition, %; measured here: 10K subset replicate screen; many hits read low in the repeat;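 first of two repeat runs on a subset; 0% = infected and 100% = uninfected wells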
* marks the source's active call; other numbers are inactive results; ? = inconclusive; . = no result given.

SMILES | YopH inh | RecA splice inh | Mtb bLac sens | Mtb growth | Arbovirus inh | others
Cc1ccc(Oc2ccc(Oc3ccc(C)cc3)nn2)cc1 | -15 | 0.6 | 1 | 11% | 1
COP(=O)(c1ccc(N(C)C)cc1)C(O)c1ccccc1 (stereo not given) | . | -0.5 | 2 | . | .
CCCCOC(=O)Nc1nc2ccc(OC)cc2s1 | -18 | -0.1 | 0 | 0% | 5 | Arbovirus inh repeat=-1
O=C(NCc1ccco1)c1cc(-c2cccnc2)nc2ccccc12 | -29 | 2.1 | -5 | 1% | 4
COc1ccccc1/C=C/C=N/N1CCN(c2ccccn2)CC1 | -8 | 1.7 | -3 | -3% | -1
COc1ccc(N(CC(=O)NCc2ccc(C)cc2)S(=O)(=O)c2c(C)[nH]c(=O)[nH]c2=O)cc1 | . | 5.8 | -2 | . | .
CC(C)CN(C(=O)c1cccc([N+](=O)[O-])c1)c1c(N)n(CC(C)C)c(=O)[nH]c1=O | . | -0.1 | 2 | . | .
COc1ccc2nc(NC(=O)Nc3ccccc3OC)sc2c1 | . | 1.3 | 6 | . | .
CC(=O)Nc1ccc2c(c1)nc(CCN1CCN(c3ccccn3)CC1)n2C | . | -3.0 | 0 | . | .
Cc1c(C(N)=O)sc2ncn(CC(=O)OC(C)C)c(=O)c12 | -5 | 0.6 | 3 | -8% | 4
CCCc1nn(C)c(C(=O)Nc2ccc(C(C)(C)C)cc2)c1Cl | -22 | 13 | 70 | 31% | -13
Cc1cc(C)c2oc(C(=O)N(Cc3ccc(F)cc3)C3CCS(=O)(=O)C3)cc(=O)c2c1 (stereo not given) | . | 2.2 | 5 | . | .
COc1ccc(C(=O)Cn2cnc3ccccc3c2=O)cc1 | . | 1.8 | -3 | . | .
CN1CCN(C(=S)C(=O)Nc2ccc(Br)cc2)CC1 | . | . | 6 | 4% | 3
Cc1[nH][nH]c(=O)c1N=Nc1ccc(S(N)(=O)=O)cc1 | . | 6.2 | -7 | . | .
Clc1ccc(COn2c(-c3ccccc3)nc3ccccc32)cc1 | -25 | 8.0 | 16 | -3% | -6
COc1ccc(CC(=O)Oc2ccc(C)cc2C)cc1 | . | 7.9 | 1 | . | .
Cc1[nH]n(-c2cccc3ccccc23)c(=O)c1C=Nc1ccc2[nH]c(=O)[nH]c2c1 | 3 | -1.3 | 3 | -4% | 2
CCOC(=O)C1=C(O)/C(=C\c2ccc(O)c(OCC)c2)N=C1C | . | -1.1 | 3 | 6% | .
Cc1nnc(SCC(=O)NC2CCCCC2C)s1 (stereo not given) | . | -1.5 | -6 | -10% | 0
CC(C)CNC(=O)c1c(N)n(Cc2ccc3c(c2)OCO3)c2nc3ccccc3nc12 | -3 | 55* | -1 | 6% | -14
Cc1cc(OCC(=O)NCCc2ccc(Cl)cc2)c2c(C)cc(=O)oc2c1 | . | -0.5 | 0 | . | .
Cc1ccc2nc(C)c(Cl)c(=O)n2c1 | -26 | -1.1 | -10 | -4% | 4
Cc1ccc(NC(=O)NCc2cccnc2)cc1 | . | 0.0 | -13 | . | .
C[C@]12CCC3C(CC[C@H]4CC(O)CC[C@]34C)C1CC/C2=N/NC(=O)c1ccncc1 (stereo not given in full) | . | 1.2 | 98 | . | .
Cc1ccnc(NC(=O)CNC(=O)c2cccs2)c1 | . | 0.5 | -16 | . | .
Cc1cc2c(cc(C(=O)OCC(=O)NCc3ccco3)n2C)s1 | -21 | -1.4 | ? | -16% | -15
CCCn1c(C(C)Nc2nc(-c3cccc(Br)c3)cs2)nc2ccccc21 (stereo not given) | . | 1.0 | 6 | . | .
CC(C)NC(=O)/C(C#N)=C/c1ccc2c(c1)OCCO2 | -37 | -0.3 | -4 | -1% | -1
CCN1C(=O)/C(=C/c2ccc3c(c2)CCN3CCCCl)C(=O)NC1=S | -11 | 1.7 | 3 | 10% | -5
CC(C)n1ncc(N2CCOCC2)c(Cl)c1=O | . | -0.9 | 3 | . | .
O=C(CCC(=O)N1CCC2(CC1)OCCO2)Nc1nnc(C2CCCCC2)s1 | . | -2.5 | -8 | -10% | .
CCOCCCNC(=O)C1CCN(C(=O)N(C)C)CC1 | -27 | -2.1 | -4 | -19% | 5
Cc1ccc(Sc2ncccc2/C=N/O)cc1 | . | 0.9 | 4 | 9% | -3
COc1cc(C(=O)NC(c2ccccc2)c2ccccc2)cc(Cl)c1OC | -28 | 1.7 | -4 | -12% | -6
COc1ccccc1-n1c(SCC(=O)N2CCOCC2)nc2ccccc2c1=O | . | -0.5 | 3 | . | .
COc1ccc(C)cc1NC(=O)C(OC(=O)c1cnc(C)cn1)c1ccccc1 (stereo not given) | . | 1.1 | 2 | . | .
Cc1nc2nc(COc3ccccc3)[nH]n2c(=O)c1C | -45 | 0.5 | 1 | 3% | 6
CNC(=O)COc1ccc(Nc2nnc(-c3ccc(C)c(S(N)(=O)=O)c3)c3ccccc23)cc1 | . | -3.5 | 7 | . | .
COC(=O)c1nn(-c2c(C)n(C)n(-c3ccccc3)c2=O)cc1O | -29 | -1.0 | 6 | -10% | 10
Cc1ccc(C(=O)NC(=S)NCC(=O)c2ccccc2)cc1 | -27 | 0.3 | 67 | 64% | -1
O=C(Nc1cc(=O)[nH]c2ncnn12)c1ccco1 | . | 1.0 | -4 | . | .
COc1ccc(N(CC(=O)NC2CCCCC2)C(=O)c2ccc(C)s2)cc1OC | . | -0.5 | -4 | . | .
COc1ccc(N2CCN(C(=O)c3ccc(NS(=O)(=O)c4cccc(F)c4)cc3)CC2)cc1 | -24 | -1.1 | 2 | 1% | 6
Cc1ccc(C)c(NS(=O)(=O)c2cc3c4c(c2)CC(=O)N4CCC3)c1 | . | -0.6 | -1 | . | .
COc1ccc(CCN2CCCC(CN(C)Cc3cc(OC)c(OC)c(OC)c3)C2)cc1 (stereo not given) | . | 0.5 | 7 | . | .
O=C(CCCn1c(=O)[nH]c2ccsc2c1=O)N1CCN(Cc2ccc3c(c2)OCO3)CC1 | 0 | 0.8 | -5 | -1% | -2
CCCNC(=O)NC(=O)CSc1nc2cc(C(=O)OC)ccc2c(=O)n1-c1ccccc1 | 37 | 0.0 | 1 | -3% | 9
CSCCCN1CCC(n2nccc2NC(=O)CCCc2ccccc2)CC1 | . | 0.5 | ? | . | .
CCN(CC)c1ccc([C@H]2[C@@H]3CCCC[C@]3(O)CCN2CC(=O)NCc2ccco2)cc1 | . | 0.2 | 7 | 7% | .
Cc1ccc(-c2nnc(C)c(N3CCOCC3)n2)cc1 | -23 | -2.3 | -8 | 6% | 0
Nc1nonc1OCCN1CCN(c2ccc([N+](=O)[O-])c3cccnc23)CC1 | . | 2.8 | -1 | -9% | .
Cc1ccc(NC(=O)C2CCCN2S(=O)(=O)c2cccc3cccnc23)cc1F (stereo not given) | -38 | . | -3 | -10% | -5
Cc1ccc(NCC(=O)N/N=C/c2ccncc2)cc1 | . | -3.6 | 3 | 3% | 7
O=C(NCC(c1cccs1)N1CCOCC1)C1CCN(S(=O)(=O)c2ccccc2C(F)(F)F)CC1 (stereo not given) | . | -2.9 | 3 | . | .
O=C(CCCOc1ccc(Cl)cc1)N1CCOCC1 | -24 | 0.6 | -3 | 4% | 0
COc1ccc(OCCNc2cc(Cl)ccc2[N+](=O)[O-])cc1 | -43 | -1.9 | 4 | 3% | -2
COCCN(CCOC)S(=O)(=O)c1ccc(/C(O)=C(\C#N)c2nc3ccccc3[nH]2)cc1 | . | -2.4 | -6 | -5% | -7
CCNS(=O)(=O)c1ccc(NC(=O)Cc2ccc(F)cc2)cc1 | -12 | -1.6 | 1 | -3% | 7
CN(CC(=O)OCC(=O)NC(=O)c1cccn1C)S(=O)(=O)c1ccc(Cl)cc1 | -10 | -1.4 | 1 | -4% | 4

More structures follow:
SMILES | YopH inh | RecA splice inh | Mtb bLac sens | Mtb growth | Arbovirus inh | others
Cc1ccc(NC(=O)CNC(=O)c2ccc(C)o2)cc1 | . | 10 | 3 | . | .
Cc1nnc(N(C)C(=O)c2cnccn2)s1 | . | -1.8 | 0 | -9% | -1
O=C(Cc1ccccc1)Nc1ccc(NC(=S)NC(=O)c2ccccc2)cc1 | . | 1.0 | -14 | . | .
COc1ccc([N+](=O)[O-])cc1CSc1nnc(NC(C)=O)s1 | . | -0.6 | -4 | 1% | -5
COC(C/C=C\C(=O)[C@@H](C)OCc1ccccc1)OC | . | 1.1 | 50 | -3% | .
CCc1ccc(S(=O)(=O)NCCc2csc(-c3cccnc3)n2)s1 | -48 | 0.1 | -7 | 12% | 10
CC(C)c1ccc(CN(C(=O)/C=C/c2ccco2)C2CCS(=O)(=O)C2)cc1 (stereo not given) | . | 3.2 | -3 | 6% | .
OCCN1CCN(c2nc(-c3ccccc3)c3cc(Br)ccc3n2)CC1 | . | -65 | ? | . | .
COc1cc(C(=O)NCC(=O)OCC(=O)c2ccc[nH]2)cc(OC)c1OC | 10 | 0.8 | -9 | -3% | -3
O=C(CSc1nnc(-c2cccs2)o1)OCc1ccccc1 | . | 1.9 | 1 | -1% | 4
CCN(CC)S(=O)(=O)c1ccc(C(=O)NCc2ccc3c(c2)cc(C)n3C)cc1 | -24 | -0.3 | -6 | 3% | 3
Cc1cc2c(cc1S(=O)(=O)CCC(=O)Nc1cccc(C(F)(F)F)c1)OCC(=O)N2 | . | 0.7 | -3 | . | .
CCSc1nnc(NC(=O)Cn2cnc3ccccc3c2=O)s1 | . | -2.1 | 97 | 5% | .
CCOC(=O)c1sc2nc(N3CCOCC3)c3c(c2c1N)CCN(C)C3 | 16 | -14 | . | 0% | -12
CC(=O)OCC(=O)[C@@]1(OC(C)=O)[C@@H](C)C[C@H]2[C@@H]3C[C@H](F)C4=CC(=O)C=C[C@]4(C)[C@@]3(F)[C@@H](O)C[C@@]21C | -42 | -8.6 | 0 | -4% | 23
COc1ccc(OCCSc2nc(C)c(Cc3ccccc3)c(=O)[nH]2)cc1 | . | 5.0 | -2 | 2% | 5
COC(=O)c1ccccc1NC(=O)NCc1ccncc1 | . | -3.8 | 2 | 5% | 15
O=S(=O)(Nc1ccc(Cl)cn1)c1ccccc1 | . | 0.2 | -2 | 7% | 1
Cc1occc1-c1n[nH]c(=S)n1C | . | 2.0 | -4 | -11% | 1
O=c1[nH]c(O)c(/C=C2\C=Nc3ccc(Br)cc32)[nH]1 | . | -0.5 | 4 | . | .

Arranged by SMILES length (high to low): some entries from above
SMILES | YopH inh | RecA splice inh | Mtb bLac sens | Mtb growth | Arbovirus inh | others
O=C(Cc1ccccc1)Nc1ccc(NC(=S)NC(=O)c2ccccc2)cc1 | . | 1.0 | -14 | . | .
CCOC(=O)c1sc2nc(N3CCOCC3)c3c(c2c1N)CCN(C)C3 | 16 | -14 | . | 0% | -12
COc1ccc([N+](=O)[O-])cc1CSc1nnc(NC(C)=O)s1 | . | -0.6 | -4 | 1% | -5
Cc1occc1-c1n[nH]c(=S)n1C | . | 2.0 | -4 | -11% | 1

Remaining list, next part
SMILES | YopH inh | RecA splice inh | Mtb bLac sens | Mtb growth | Arbovirus inh | others
CC(=O)Nc1ccc(C(=O)OCc2ccc(Br)cc2)cc1 | -23 | 6.8 | 5 | -3% | -1
Cc1sc(NC(=O)CSc2nnc(C)c(=O)[nH]2)c(C#N)c1C | -10 | 3.4 | 2 | -3% | 8
COc1ccc(CN(Cc2cccnc2)S(=O)(=O)c2ccc(-n3cnnn3)c(OC)c2)cc1 | . | 0.0 | 10 | . | .
CC(C)C(=O)Nc1nc2c(c(=O)[nH]1)CCCC2 | . | -2.9 | -1 | -2% | 3
CC(C)NC(=O)C1(S(=O)(=O)c2ccccc2)CC=CC1 | . | -1.8 | -3 | . | .
Cc1nc2c(C(=O)N3CCN(c4ccccn4)CC3)cnn2c(C)c1Cc1cccc(Cl)c1 | -22 | 12 | 73 | 0% | -15
O=C(COC(=O)c1cc(Cl)ccc1O)c1ccc2c(c1)OCO2 | . | 1.2 | 45 | . | .
COCC(=O)N1CCCC(CNS(=O)(=O)c2ccc(OC)cc2)C1 (stereo not given) | . | 3.5 | 1 | -1% | 1
CC(C)n1cc(CN2CCCC(C(=O)Nc3ccccc3Oc3cccnc3)C2)cn1 (stereo not given) | . | -1.3 | -7 | . | .
CC(=O)NC1=NN(C(C)=O)C(C)(CS(=O)(=O)c2ccc(C)c(C)c2)S1 (stereo not given) | 2 | -0.2 | 8 | -2% | 0
Cc1c(Cl)cccc1NC(=O)C1=COCCO1 | . | -0.9 | -7 | . | .
C=CCN(C(=O)Cc1cccs1)c1nc(-c2ccc(S(C)(=O)=O)cc2)cs1 | . | 8.9 | 7 | . | .
Fc1cccc(CN2CCCCCCC2)c1 | -25 | 2.6 | -9 | 5% | 6

This is a subset; rates above refer to the full screens.
